Bioassay records (PubChem)
VACV mCherry inh: inhibitors of vaccinia virus infection (mCherry reporter signal); Vaccinia virus mCherry reporter infection, fluorescence; about a quarter of the inactives have no number; Potency, µM (highest dose often 36.5 µM), for the others: at the top dose activity change, negative = inhibition, actives largely listed as inhibitors; 310,000 compounds, 0.63% hits; AID 720579; active = well fitted inhibition curve with a large enough effect; inconclusive = small, poorly fitted or top-dose-only effect; inactive = no such curve, though single readings can be large or run the other way; tested in A549 cells; further: nearly all actives have a fitted effect of over 35% in size; inactives centre near -10
VACV Venus inh: inhibitors of vaccinia virus (Venus reporter) | Vaccinia virus Venus reporter expression, fluorescence | Potency, µM (top dose mostly 36.5 µM), for inactives: at the top dose activity change, negative = inhibition, actives largely listed as inhibitors | 330,000 compounds, 0.46% hits | AID 720580; active means well fitted inhibition curve with a large enough effect; inconclusive means small, poorly fitted or top-dose-only effect; inactive means no such curve, though single readings can be large or run the other way; tested in A549 cells; further: nearly all actives have a fitted effect of over 30% in size; inactives centre near -10
* marks the source's active call; other numbers are inactive results; [ ] = remark or other dose. On the % scale 0 is the no-effect control and ±100 the full control effect; potency means the concentration at half of the fitted maximal effect. Random draw from the library. About 0.87% of those tested had a hit in this group.

Sample of the layout, 3 compounds:
`CCN(C(=O)CSc1ncn[nH]1)c1c(N)n(Cc2ccccc2)c(=O)[nH]c1=O` gave VACV mCherry inh -4.1% and VACV Venus inh -9.9%.
Screening CCN(CC)S(=O)(=O)c1ccc(Cl)c(NC(=O)COC(=O)c2cccn2C)c1 returned VACV mCherry inh inconclusive and VACV Venus inh -29.1%.
For COc1ccc(-c2cc3cc(OC)c(OC)cc3c(C)n2)cc1C the results were VACV mCherry inh -4.7% and VACV Venus inh -2.7%.

The list itself, previewed entries included:
`CCN(C(=O)CSc1ncn[nH]1)c1c(N)n(Cc2ccccc2)c(=O)[nH]c1=O` gave VACV mCherry inh -4.1% and VACV Venus inh -9.9%.
Screening CCN(CC)S(=O)(=O)c1ccc(Cl)c(NC(=O)COC(=O)c2cccn2C)c1 returned VACV mCherry inh inconclusive and VACV Venus inh -29.1%.
For COc1ccc(-c2cc3cc(OC)c(OC)cc3c(C)n2)cc1C the results were VACV mCherry inh -4.7% and VACV Venus inh -2.7%.
`O=C(N/N=C/C=C/c1ccccc1)c1ccncc1` gave VACV mCherry inh -6.8% and VACV Venus inh 6.1%.
Cc1cc(C)nc(SCc2cccc(C(=O)O)c2)n1 was read as VACV mCherry inh -3.7% and VACV Venus inh 4.1%.
`Cn1c(SCC(=O)NCCN2C(=O)CSC2=O)nc2ccccc2c1=O` gave VACV mCherry inh -18.7% and VACV Venus inh -21.6%.
Screening COc1ccc(N2C(=O)CC(N(C)CCc3ccc(OC)c(OC)c3)C2=O)cc1 (stereo not given) returned VACV mCherry inh inactive and VACV Venus inh -17.5%.
CCc1ccc(C(=O)COC(=O)CNC(=O)c2ccc(Br)o2)cc1 was read as VACV mCherry inh inactive and VACV Venus inh -4.8%.
For Cc1ccc2cccc(NC(=O)C(C)Oc3ccc(C)c(C)c3)c2n1 (stereo not given) the results were VACV mCherry inh -2.9% and VACV Venus inh -4.1%.
For CCOC(=O)C1CCN(c2ccc(Cl)nn2)CC1 the results were VACV mCherry inh -0.5% and VACV Venus inh -8.2%.
For CC(C(=O)NC1CCCCC1)N1CCN(C)CC1 (stereo not given) the results were VACV mCherry inh -1.1% and VACV Venus inh 3.3%.
Screening O=C(C(Cc1ccccc1)N1C(=O)C2C3C=CC(C3)C2C1=O)N1CCCCC1 (stereo not given) returned VACV mCherry inh inactive and VACV Venus inh -9.2%.
`COc1ccccc1NC(=O)CSc1ccc(-c2ccc(-n3ccnc3)cc2)nn1` gave VACV mCherry inh inactive and VACV Venus inh -23.4%.
`O=C1CCC/C(=N/NC(=O)C2CCN(S(=O)(=O)c3cccs3)CC2)C1` gave VACV mCherry inh -9.4% and VACV Venus inh -8.5%.
`COc1ccc(CN2C(=O)C(CC(=O)NC3CCCCC3)CC(C(=O)N(C(C)C)C(C)C)=C2C)cc1` (stereo not given) gave VACV mCherry inh -19.5% and VACV Venus inh inconclusive.
`Cc1cccc(NC(=O)NC(C)C(c2cccs2)N2CCOCC2)c1` (stereo not given) gave VACV mCherry inh -14.6% and VACV Venus inh 1.0%.
CCc1ccc(C(=O)COC(=O)c2cc([N+](=O)[O-])ccc2N2CCOCC2)cc1 was read as VACV mCherry inh inconclusive and VACV Venus inh -22.0%.
COc1cc(-c2cc(C(=O)Nc3cccc(C(C)=O)c3)c3ccccc3n2)cc(OC)c1OC was read as VACV mCherry inh inactive and VACV Venus inh -29.6%.
CCOC(=O)C1=C(C)NC(C)=C(C(=O)OCCNC(=O)c2cccnc2)C1c1cccc([N+](=O)[O-])c1 (stereo not given) was read as VACV mCherry inh -15.4% and VACV Venus inh -20.4%.
Screening c1ncc(-c2ccc3c(c2)OCO3)c(NCCc2cnc[nH]2)n1 returned VACV mCherry inh inactive and VACV Venus inh 0.0%.
`COc1ccc(-n2ccn(Cc3ccc(C)cc3)c(=O)c2=O)cc1OC` gave VACV mCherry inh -0.9% and VACV Venus inh 4.6%.
Screening COc1ccc(CCC(=O)NC2CC(=O)N(c3cccc(F)c3)C2)cc1 (stereo not given) returned VACV mCherry inh -16.3% and VACV Venus inh -10.4%.
Screening Cc1ccc(S(=O)(=O)CCC(=O)OCc2ccc(Cl)cc2)cc1 returned VACV mCherry inh -14.6% and VACV Venus inh -4.3%.
Cc1ccc(C(=O)NC(C)c2nnc(SCC(=O)NC3CCCC3)n2C)cc1 (stereo not given) was read as VACV mCherry inh inactive and VACV Venus inh -7.4%.
Screening COc1cccc(C2C(=O)N(C3CCCCC3)CC(=O)N2Cc2ccc(Cl)cc2)c1 (stereo not given) returned VACV mCherry inh -13.2% and VACV Venus inh -8.5%.
For O=C(CCCN1C(=O)c2cccc3cccc(c23)C1=O)NCCN1CCOCC1 the results were VACV mCherry inh -3.9% and VACV Venus inh -2.0%.
NS(=O)(=O)c1ccc(NC(=O)c2ccc(COc3ccccc3)o2)cc1 was read as VACV mCherry inh 1.5% and VACV Venus inh -5.9%.
Screening CC(=O)c1ccc(NC(=O)c2ccn(C(=O)OCC(C)C)n2)cc1 returned VACV mCherry inh -25.6% and VACV Venus inh -9.4%.
Cc1cc(C)cc(-n2c(SCC(N)=O)nc3c([nH]c4ccccc43)c2=O)c1 was read as VACV mCherry inh -18.4% and VACV Venus inh -22.2%.
Cc1cc(C)nc(/N=C2/NC(=O)CS2)n1 was read as VACV mCherry inh -6.7% and VACV Venus inh 2.3%.
`O=C(COC(=O)c1cccc2ccccc12)Nc1cccnc1Cl` gave VACV mCherry inh -0.2% and VACV Venus inh 0.0%.
Screening Fc1ccc(Nc2nnns2)cc1 returned VACV mCherry inh -22.0% and VACV Venus inh -19.8%.
For C/C(=N\O)C(=O)NCCCn1ccnc1 the results were VACV mCherry inh -5.0% and VACV Venus inh 6.0%.
Screening O=C(O)c1cccc(S(=O)(=O)Nc2ccccc2C(=O)NCCc2ccccc2)c1 returned VACV mCherry inh inactive and VACV Venus inh 0.0%.
COc1ccc(CCC(=O)NCCc2csc(-c3ccc(Cl)cc3)n2)cc1 was read as VACV mCherry inh inconclusive and VACV Venus inh inconclusive.
Screening O=S(=O)(c1ccc(C(F)(F)F)cc1)N1CCCN(c2ccc(C(F)(F)F)cn2)CC1 returned VACV mCherry inh inactive[7.34 µM] and VACV Venus inh -5.0%[7.34 µM].
For COc1ccc(C(=O)Nc2c(C)ccc3nsnc23)cc1[N+](=O)[O-] the results were VACV mCherry inh -3.6% and VACV Venus inh -14.7%.
Screening COC(=O)CN(C(=S)Nc1ccc(F)cc1)C1CC(=O)N(c2ccc(OC)cc2)C1=O (stereo not given) returned VACV mCherry inh inactive and VACV Venus inh -0.2%.
COc1cccc(NC(=O)CN(Cc2ccccc2)S(C)(=O)=O)c1 was read as VACV mCherry inh -9.8% and VACV Venus inh 0.0%.
CCC1=NN(C(=O)COc2ccccc2)C(O)(c2ccncc2)C1 (stereo not given) was read as VACV mCherry inh -21.5% and VACV Venus inh -7.0%.
For COc1ccc(-c2[nH]ncc2/C=N/NC(=O)c2ccncc2)c(OC)c1 the results were VACV mCherry inh inactive and VACV Venus inh -17.1%.
CC1(C(=O)NCc2ccccn2)C=CCN1C(=O)c1ccccc1 (stereo not given) was read as VACV mCherry inh inactive and VACV Venus inh -0.1%.
For Cc1onc(-c2cccc(Cl)c2Cl)c1C(=O)O/N=C(\N)c1ccc([N+](=O)[O-])o1 the results were VACV mCherry inh inconclusive and VACV Venus inh inconclusive.
`CC(=O)c1cccc(NC(=O)CSc2nc(=O)n(Cc3ccccn3)c3c2CCC3)c1` gave VACV mCherry inh -28.2% and VACV Venus inh -16.8%.
Screening CCC1(N(C(C)=O)c2ccc(OC)cc2)C(=O)c2ccccc2C1=O returned VACV mCherry inh -13.5% and VACV Venus inh -4.7%.
`O=C(NCc1ccccc1)c1ccccc1Br` gave VACV mCherry inh -0.5% and VACV Venus inh -2.0%.
`CCN(CC)S(=O)(=O)c1ccc(S(=O)(=O)N2CCC(C(=O)NC3CCN(Cc4ccccc4)CC3)CC2)cc1` gave VACV mCherry inh 7.0% and VACV Venus inh -4.6%.
For COc1cc(C(=O)C(O)c2ccc(O)c(OC)c2)ccc1O (stereo not given) the results were VACV mCherry inh -10.7% and VACV Venus inh -3.4%.
Screening COc1ccc(NC(=O)CN(C)CC(=O)Nc2ccc(Cl)cc2F)cc1 returned VACV mCherry inh -28.2% and VACV Venus inh -3.6%.
Screening CC(=O)c1ccc(N2C(=O)Nc3ccccc3S2(=O)=O)cc1 returned VACV mCherry inh -4.6% and VACV Venus inh -10.7%.
For COc1ccc(NC(=O)C2Cc3c(-c4ccc5c(c4)OCO5)ccnc3O2)cn1 (stereo not given) the results were VACV mCherry inh inconclusive and VACV Venus inh -22.3%.
For COc1ccccc1C(=O)NC(CCSC)C(=O)NCC(c1ccccc1OC)N1CCCC1 (stereo not given) the results were VACV mCherry inh inconclusive and VACV Venus inh -22.8%.
COc1ccc([C@H]2C[C@H](n3cc(-c4ccc(F)cc4)nn3)[C@@H](O)CN2CC2CCCCC2)cc1 was read as VACV mCherry inh -14.7% and VACV Venus inh -15.3%.
`COC(=O)c1cc2occc2n1CC(=O)Nc1ccc(C(C)C)cc1` gave VACV mCherry inh -11.1% and VACV Venus inh -7.5%.
`N#Cc1ccc(NN=Nc2ccccc2C#N)cc1` gave VACV mCherry inh -6.1% and VACV Venus inh -5.3%.
Screening c1ccc(Nc2nn[nH]n2)cc1 returned VACV mCherry inh -2.0% and VACV Venus inh -3.2%.
Screening O=C(Nc1ccc(Cl)cc1)c1cccc(S(=O)(=O)Nc2ccccn2)c1 returned VACV mCherry inh -5.9% and VACV Venus inh -8.6%.
For O=C(CN1CCN(c2ccccc2F)CC1)NCc1ccc(Cl)cc1 the results were VACV mCherry inh -28.7% and VACV Venus inh -3.9%.
Screening Cc1ccc(C(c2nnnn2C2CCCC2)N2c3ccccc3CC2C)cc1 (stereo not given) returned VACV mCherry inh inactive and VACV Venus inh -0.7%.
`O=C(COC(=O)C12CC3CC(CC(C3)C1)C2)Nc1ccccc1F` gave VACV mCherry inh -9.9% and VACV Venus inh -9.9%.
`COCCNC(=O)C(c1ccc(C)cc1)N(C(=O)CCC(=O)Nc1ccccn1)c1cccc(C)c1` (stereo not given) gave VACV mCherry inh -9.1% and VACV Venus inh 2.6%.
Screening CCCC(=O)C1=C(O)C(C(=O)OC)C(C)(C)CC1=Nc1ccc(OC)cc1 (stereo not given) returned VACV mCherry inh inactive and VACV Venus inh -21.1%.
`CCCOc1ccc(/C=C2\SC(=S)N(CC3CCCO3)C2=O)cc1` (stereo not given) gave VACV mCherry inh inactive and VACV Venus inh -9.9%.
For O=C(CSc1nnc(CNC(=O)c2ccc(F)cc2)o1)Nc1nccs1 the results were VACV mCherry inh -12.5% and VACV Venus inh -7.5%.
Screening CC(=O)Nc1ccc(-c2cc3ccccc3o2)cc1 returned VACV mCherry inh -2.5% and VACV Venus inh -6.1%.
Screening COCCSc1nnc(NC(=O)c2cc(C(=O)OC)cc([N+](=O)[O-])c2)s1 returned VACV mCherry inh -8.7% and VACV Venus inh -3.5%.
`CCC1CN(CCC(=O)NC2CCOC(C)(C)C2)Cc2cc(OC)ccc2O1` (stereo not given) gave VACV mCherry inh -6.9% and VACV Venus inh 3.4%.
Screening COc1ccc(/C=C/C(=O)NC(=S)N2CCCC(C(N)=O)C2)cc1 (stereo not given) returned VACV mCherry inh -3.1% and VACV Venus inh -8.5%.
`COc1cc2[nH]c3c(=O)n(CCN4CCOCC4)cnc3c2cc1OC` gave VACV mCherry inh inactive and VACV Venus inh -8.0%.
`COc1ccc(NC(=O)c2ccc(CNc3c(N4CCCC4)c(=O)c3=O)cc2)cc1Cl` gave VACV mCherry inh 7.3% and VACV Venus inh -11.3%.
`CCNC(=S)N(Cc1ccc2c(c1)OCO2)C1CC(=O)N(c2ccc(OC)cc2)C1=O` (stereo not given) gave VACV mCherry inh -1.1% and VACV Venus inh -7.5%.
For CC(C)N=c1scc(-c2cccs2)n1/N=C/c1ccc(O)c(O)c1O the results were VACV mCherry inh inconclusive and VACV Venus inh inconclusive.
O=C(Cc1ccccc1F)Nc1cccc2cccnc12 was read as VACV mCherry inh -1.9% and VACV Venus inh -27.0%.
`O=C(NP(=O)(N1CC1)N1CC1)c1cc(I)ccc1I` gave VACV mCherry inh -19.1% and VACV Venus inh -3.7%.
For Cc1c(C#N)c(O)[nH]c(=O)c1N=Nc1ccc(S(N)(=O)=O)cc1 the results were VACV mCherry inh inactive and VACV Venus inh 5.6%.
COc1ccc(CCNC(=O)Cn2cnc3c(nnn3Cc3ccccc3F)c2=O)cc1OC was read as VACV mCherry inh inconclusive and VACV Venus inh inconclusive.
COc1ccc(C(C)C)cc1S(=O)(=O)n1cnc(C)c1 was read as VACV mCherry inh -24.7% and VACV Venus inh -29.5%.
For COC(=O)[C@]1(Cc2ccccc2)N[C@H](CN(C)C(=O)C2CCCCC2)[C@@H]2C(=O)N(Cc3ccccc3)C(=O)[C@@H]21 the results were VACV mCherry inh inconclusive and VACV Venus inh inconclusive.
For ClC1CCCCC1n1nnc2ccccc21 (stereo not given) the results were VACV mCherry inh -15.9% and VACV Venus inh -16.7%.
`COC(=O)c1ccc(-c2ccc(/C=N/N3C(=O)C4C5C=CC(CC5)C4C3=O)o2)cc1` (stereo not given) gave VACV mCherry inh inactive and VACV Venus inh -5.5%.
`CCCN(CCC)CCNC(=O)c1sc2nc3n(c(=O)c2c1C)CCCCC3` gave VACV mCherry inh -1.2% and VACV Venus inh -6.0%.

2 records drawn at random from the list so far, as already listed:
Cc1ccc(C(=O)NC(C)c2nnc(SCC(=O)NC3CCCC3)n2C)cc1 (stereo not given) was read as VACV mCherry inh inactive and VACV Venus inh -7.4%.
For COC(=O)[C@]1(Cc2ccccc2)N[C@H](CN(C)C(=O)C2CCCCC2)[C@@H]2C(=O)N(Cc3ccccc3)C(=O)[C@@H]21 the results were VACV mCherry inh inconclusive and VACV Venus inh inconclusive.
